CDC25B-CDK2 inh: human CDC25B-CDK2/CyclinA binding inhibition; HTRF CDC25B-CDK2/CyclinA binding, anti-His/anti-Flag; active compounds read high; z-score (no concentration beside the values); actives 0.72% (n = 94,000);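 note: score is relative to mean and SD of negative controls; strong numbers were not always called active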
TAR Tat displ: HIV-1 TAR-Tat binding disruption; z-score (concentration not given with the values); HIV-1 TAR RNA, Tat peptide displacement FRET; active compounds read high; AID 1259389; actives 0.6% (n = 100,000);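 note: score is relative to mean and SD of negative controls; some compounds called inactive have numbers as strong as hits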
The depositor's hits bear a star; . = no result given.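 Rule for the calls: active = z-score from 3 up in half or more of its runs; inactive = the rest.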

SMILES | CDC25B-CDK2 inh | TAR Tat displ
CCSc1nc(=O)c2c(n1C)NC(=O)CC2c1cc(Br)ccc1OC (centres undefined) | -1.5 | 1.4
Cc1noc2ncnc(NCc3cccs3)c12 | . | -0.07
Cc1ccc(-c2cn3cc(Cl)ccc3n2)cc1 | 0.38 | 1.4
CCOC(=O)C1=C(C)NC2=C(C(=O)CC(C)(C)C2)C1c1ccc(CC)cc1 (centres undefined) | 0.62 | -1.5
O=C(c1cnn(-c2cccc(F)c2)c1-n1cccc1)N1CCN(c2ccccc2F)CC1 | . | 0.97
Cc1ccccc1OCc1nc(C#N)c(NCc2ccco2)o1 | -0.34 | 0.41
CCCN1C(=O)C2(c3ccccc31)c1c(oc3ccc(F)cc3c1=O)C(=O)N2CCCOC (centres undefined) | -1.8 | 1.5
CN(C)C(=O)C12CCC(C)(C(=O)C1)C2(C)C (centres undefined) | 1.2 | 0.73
CSc1ccc(C(=O)NC(=O)NCc2cccc(Cl)c2)s1 | -2.4 | .
O=C(O)CC(CC(=O)Oc1ccc(F)cc1)c1ccc(Cl)cc1Cl (centres undefined) | -0.63 | .
Fc1ccccc1N1CCN(CCCNc2ccc3nnc(-c4ccccc4)n3n2)CC1 | -0.96 | -0.34
Cc1nc2c(c(C)c1CCC(=O)NCC1CCCO1)c(=O)n(C)c(=O)n2C (centres undefined) | 0.49 | 1.2
CN1Cc2c(N)cccc2C(c2ccccc2)C1 (centres undefined) | 1.3 | -1.7
CCOC(=O)C1=C(C)Nc2nc(SCc3ccc(F)cc3)nn2C1c1ccc(OC)c(OC)c1 (centres undefined) | -1.3 | -0.59
Cn1nc(/C=C\c2ccccc2)nc2c(=O)n(C)c(=O)nc1-2 | -0.59 | 1.3
NC(=O)C1CCN(CC(O)CSc2ccc(F)cc2)CC1 (centres undefined) | -1.7 | .
CCc1ccc(-c2cc(O)cc3sc(=O)oc23)cc1 | -2.2 | -1.2
CCOC(=O)c1nc(Nc2ccc(OCC(C)C)cc2)c2ccccc2n1 | -0.97 | 2.3
CC(C)NC(=O)N1CCC(n2c(C3CCCC3)nc3cccnc32)CC1 | . | 1.7
Cc1scc(CN2CCN(c3ncccn3)CC2)c1C | . | 1.9
Cc1nc(-c2ccc(C)c(S(=O)(=O)N3c4ccccc4CC3C)c2)cs1 (centres undefined) | . | 0.24
CCN(CC)S(=O)(=O)c1c(C)nn(C(=O)c2cc(C)cc(C)c2)c1C | . | 0.35
Cn1ccc2cc(S(=O)(=O)N3CCCC(C(=O)N4CCN(c5ccccn5)CC4)C3)ccc21 (centres undefined) | . | -0.32
O=C(c1ccc2c(c1)C1C3CCC(C3)C1C(c1ccccc1)N2)N1CCOCC1 (centres undefined) | 1.4 | -1
CC(C)N1C(=O)C(Cc2nc3ccccc3c(=O)n2CCc2ccccc2)c2ccccc21 (centres undefined) | -0.82 | 0.61
Cc1ccc(NS(=O)(=O)c2c(C)nc3sc4ccccc4n3c2=O)cc1F | -1.9 | -0.5
COCCNc1cc(C)nc2ccccc12 | -1.7 | 0.18
Cc1nc(C)c(-c2ccnc(N)n2)o1 | -1.9 | .
Cc1oc(-c2ccc(OC(C)C)cc2)nc1Cn1c(=O)cc(C)c2c(C)nn(C)c21 | . | 0.87
CCOC(=O)C1=C(C)N=C2SCCC(=O)N2C1/C=C/c1ccccc1 (centres undefined) | -0.3 | 2.5
N#Cc1c[nH]n2c(NC3CCCCC3)c(-c3ccc(Cl)cc3)nc12 | -0.58 | 0.44
CCn1cc(C(=O)OCc2ccc(C)cc2C)c(=O)c2ccc(C)nc21 | . | 0.67
Cc1ccc2nc(SCc3nc(-c4ccc(Cl)cc4)no3)[nH]c2c1 | -0.68 | -0.7
COc1ccc(NC(=O)CN(C2=NC3CS(=O)(=O)CC3S2)c2ccc(OC)cc2)cc1 (centres undefined) | -1.1 | 0.24
O=c1c(Nc2ccc(F)c(Cl)c2)c(-c2ccc(Cl)cc2)c1=O | . | -1
Cc1oc(-c2ccc(Cl)cc2)nc1CSc1nncn2c1cc1occc12 | . | -6.4

An excerpt from above in order of length of the SMILES, low to high:
SMILES | CDC25B-CDK2 inh | TAR Tat displ
Cc1ccc2nc(SCc3nc(-c4ccc(Cl)cc4)no3)[nH]c2c1 | -0.68 | -0.7
CCOC(=O)C1=C(C)N=C2SCCC(=O)N2C1/C=C/c1ccccc1 (centres undefined) | -0.3 | 2.5
CC(C)N1C(=O)C(Cc2nc3ccccc3c(=O)n2CCc2ccccc2)c2ccccc21 (centres undefined) | -0.82 | 0.61
Cc1oc(-c2ccc(OC(C)C)cc2)nc1Cn1c(=O)cc(C)c2c(C)nn(C)c21 | . | 0.87

The main list resumes with the five entries that preceded the break.
SMILES | CDC25B-CDK2 inh | TAR Tat displ
CCn1cc(C(=O)OCc2ccc(C)cc2C)c(=O)c2ccc(C)nc21 | . | 0.67
Cc1ccc2nc(SCc3nc(-c4ccc(Cl)cc4)no3)[nH]c2c1 | -0.68 | -0.7
COc1ccc(NC(=O)CN(C2=NC3CS(=O)(=O)CC3S2)c2ccc(OC)cc2)cc1 (centres undefined) | -1.1 | 0.24
O=c1c(Nc2ccc(F)c(Cl)c2)c(-c2ccc(Cl)cc2)c1=O | . | -1
Cc1oc(-c2ccc(Cl)cc2)nc1CSc1nncn2c1cc1occc12 | . | -6.4
CCOc1ccc(C2CC(=O)NC3=C2C(=O)CC(C)(C)C3)cc1 (centres undefined) | -0.25 | 1.9
Cc1ccc(-c2nn3c(=O)c(NC(=O)c4ccc(Cl)cc4)cnc3o2)cc1 | . | 0.81
CCC(C)NC(=O)C1CCN(S(=O)(=O)c2ccc3c(c2)nc(C)n3C2CCCC2)CC1 (centres undefined) | -0.11 | -0.17
CCn1cc(C2=NOC(C(=O)Nc3cc(Cl)ccc3O)C2)c(C)n1 (centres undefined) | -0.39 | -1.3
CN1C(=O)CSc2ccc(NC(=O)N3CCN(c4ccccn4)CC3)cc21 | -0.4 | -0.27
Fc1ccc(C(Nc2ccc3c(c2)OCCO3)c2nnc(-c3ccccc3)o2)c(Cl)c1 (centres undefined) | . | 0.9
Cc1ccc(NC2c3ncccc3C(=O)N2Cc2ccco2)c(Br)c1 (centres undefined) | . | 1.5
CC1(C)CC(=O)c2cnc(N3CCN(Cc4ccc5c(c4)OCO5)CC3)nc2C1 | -1 | 1.3
CCN1CCC2(CC1)NCCN=C2NCc1cccc(F)c1 | . | -1.9
CN(C)c1ccc(-c2nc3c(c(=O)[nH]2)Cc2cc(F)ccc2O3)cc1 | -2.5 | 1.2
C=CCN1C(=O)/C(=C2\SC(=S)N(CCCOC)C2=O)c2ccccc21 | -2.7 | .
Nc1nc(-c2ccccc2Cl)nn1C(=O)CCc1ccccc1 | 0.54 | -1.1
Cc1ccc(C2CC(c3ccc(C(C)C)cc3)Nc3nnnn32)cc1 (centres undefined) | . | 1.1
N#Cc1c(-c2ccc(F)cc2)noc1N | -1.5 | -0.41
Cn1cc(Br)c(NC(=O)c2cc(C(F)(F)F)cc(C(F)(F)F)c2)n1 | 3.4 | .
COCCNC(=O)c1cnc(N2CCCC2)nc1 | -1.4 | 1.2
CC(C)(C)/C(=N/O)c1cccs1 | -1.8 | .
CCOC(=O)N1CCN(C(=O)C2CCN(c3ccc(-c4cccs4)nn3)CC2)CC1 | . | -0.16
O=C1C(=O)N(CCCN2CCOCC2)C(c2cccnc2)/C1=C(\O)c1ccc(Br)cc1 (centres undefined) | 0.92 | 0.61
COc1ccc(C2N(c3ccc(F)cc3)C(=O)C3CCCN32)cc1 (centres undefined) | -1.2 | -1.6
Nc1nonc1C(=O)N1CCN(C(=O)CSc2ccc(Cl)cc2)CC1 | -1.1 | 0.35
O=C(CCS(=O)(=O)c1cccs1)Nc1ccc(C(=O)NC2CCCC2)cc1 | -1.2 | .
Cn1cnc(S(=O)(=O)Nc2ccc(N3CCCCC3)cc2)c1 | -1.5 | .
Cc1cc(C)cc(Nc2ncnc3onc(C)c23)c1 | . | 0.74
CCOc1ccccc1-n1nnc(-c2nc(-c3ccncc3)no2)c1N | . | -1.7
C=Cc1ccc(Cn2cnc3onc(-c4ccc(Cl)cc4)c3c2=O)cc1 | . | 0.84
Cc1ccc(Cn2nnc3c(C)nnc(N4CCOCC4)c32)cc1 | -0.99 | -1.5
Cc1ccn2c(-c3csc(Nc4ccc(N(C)C)cc4)n3)c(C)nc2c1 | -5.6 | 1.2
O=C(Nc1cc(-c2nc3ncccc3o2)ccc1Cl)c1cccc2ccccc12 | -5.9 | .
CN(C)C(=O)NC1C(NC(=O)N(C)C)N(C)C(=O)N1C (centres undefined) | 1.1 | 1.3
COc1ccccc1NS(=O)(=O)c1ccc2[nH]c3c(c2c1)CCCCC3 | . | 1.1
Cc1ccc(OC(=O)c2snnc2C)cc1C | -0.54 | -0.13
CCN(CC)C(=O)Cn1cnc2c1c(=O)n(C)c(=O)n2C | -1.9 | -0.57
CC(C)(C)c1cc(NC(=S)NC(=O)c2ccccc2)n[nH]1 | 0.28 | .
CNC(=O)c1ccccc1SCCC(=O)O | -0.05 | .
CCOC(=O)N1CCN(C(=O)CSc2nc3c(cnn3-c3ccc(F)cc3)c(=O)[nH]2)CC1 | -1.6 | 0.79
Cc1cc2nc(NC3=NCN(CCN4CCOCC4)CN3)nc(C)c2cc1C | 11* | .
Cc1cc(-c2ccc(S(=O)(=O)N3CCN(C4CCCCC4)CC3)s2)n[nH]1 | . | 1.8
O=C1NN=CC1CCCNC(=S)Nc1cccc(C(F)(F)F)c1 (centres undefined) | -0.7 | .
CCOC(=O)C1CCCN(S(=O)(=O)c2ccc3c(c2)C(C)(C)C(=O)N3C)C1 (centres undefined) | . | 2
O=C1c2ccccc2-c2onc3c(N4CCN(c5ccccc5)CC4)ccc1c23 | -1.9 | 1.8
Cc1ccc2oc(=O)n(CCC(=O)Nc3ccc(N4CCOCC4)cc3)c2c1 | -1.7 | .
COc1cccc(N2C(=O)C3CCCN3C2c2ccc(C)o2)c1 (centres undefined) | -0.25 | 2.5
Cc1cccc(N2CCc3c2nc2ccc(Br)cc2c3N)c1 | -0.04 | -0.45
Cn1c(-c2ccc3c(c2)OCO3)cn2cc(-c3cccc(Br)c3)nc12 | -0.88 | -0.54
CC(C)c1ccc(C2NC(=O)c3c(sc4c3CCN(C)C4)N2)cc1 (centres undefined) | -0.56 | -4.9
O=C(Cn1cnc(S(=O)(=O)N2CCOCC2)c1)Nc1ccc(F)c(Cl)c1 | . | 0.43
Cn1c(CNc2nc3ccccc3n2CCN2CCCCC2)nc2ccccc21 | -1.4 | 0.36
CCCCSc1nc2n(n1)C(c1ccc(OC)c(OC)c1)C1=C(CCCC1=O)N2 (centres undefined) | -2.2 | -0.45
CC1(C)C(=O)C=C[C@@]2(C)C1CC(=O)[C@@]1(C)C3=CC(=O)O[C@@H](c4ccoc4)[C@]3(C)CCC12 (some centres undefined) | . | 2.5
CC(C)(C)CC(C)(C)NC(=O)CSc1ncnc2nc[nH]c12 | -1 | .
O=C(C1CCN(c2ncnc3c2nc2n3CCCCC2)CC1)N1CCN(c2ccc(F)cc2)CC1 | . | -0.02
COc1cc2c(cc1NC(=O)NC1CCCCC1)oc1ccccc12 | -1.9 | .
O=C1Cc2c(ncnc2N2CCN(c3ncccn3)CC2)N1 | -0.63 | 1.7
CCOC(=O)c1cc(S(=O)(=O)N2CCOCC2)cn1C | -1.6 | 1.4
Cc1ccc(NC(=O)c2ccccc2F)cc1[N+](=O)[O-] | -0.83 | .
O=C(CSc1nccn(-c2cccc(F)c2)c1=O)NC1CCCCC1 | . | 0.83
CCCCCOC(=O)C1=C(C)Nc2nnnn2C1c1cccc(F)c1 (centres undefined) | -0.59 | 0.5
O=C(Nc1cccnc1)c1[nH]nc2c1COc1ccccc1-2 | . | -0.3
Cc1ccc(Cl)cc1N1CCN(c2ncnc3c2nc2n3CCCCC2)CC1 | . | 0.04

Structural class: the entries above with a CF3 group (2)
SMILES | CDC25B-CDK2 inh | TAR Tat displ
Cn1cc(Br)c(NC(=O)c2cc(C(F)(F)F)cc(C(F)(F)F)c2)n1 | 3.4 | .
O=C1NN=CC1CCCNC(=S)Nc1cccc(C(F)(F)F)c1 (centres undefined) | -0.7 | .

More entries
SMILES | CDC25B-CDK2 inh | TAR Tat displ
CC(C)NC(=O)C1CCN(C(=O)N2CC(C)Oc3ccccc32)CC1 (centres undefined) | . | -0.27
CCOc1ccc(S(=O)(=O)[C@H]2CS(=O)(=O)C[C@@H]2NCCOC)cc1 | -2.2 | 0.19
CC1=C(C(=O)Nc2cccc(F)c2)C(c2ccccn2)C2=C(CC(C)(C)CC2=O)N1 (centres undefined) | -0.35 | 0.1
C=C(C)CN1CCN(C(=O)CCCc2c[nH]c3ccccc23)CC1 | . | 1.4
Cn1cnnc1SCCC(=O)Nc1ccccc1 | 0.88 | 1.9
Cc1cccc2nc(-c3cccs3)c(Nc3ccccc3)n12 | -2.2 | -0.54
Cc1ccc(-c2nn(C)c(=O)c3ccccc23)cc1S(=O)(=O)NC(C)c1ccccc1 (centres undefined) | -0.55 | 1.5
CCOc1ccc(OCC)c(NC(=O)c2cn3c4c(ccc(Cl)c4c2=O)OCC3)c1 | . | 1
O=C(C1CCN(c2ccc(-c3cccs3)nn2)CC1)N1CC=C(c2ccccc2)CC1 | . | 0.65
OCCSc1nnc(COc2cccc(Br)c2)n1Cc1ccccc1 | -0.02 | 1.6
Cc1cc(C)nc(SCCC(=O)O)n1 | -0.12 | 0.47
Fc1ccc(N2CN(Cc3ccccc3)CNC2=S)cc1 | -0.01 | .
Cc1ccc(-c2nc(SCc3cc(=O)n4nc(C(C)C)sc4n3)n[nH]2)cc1 | . | 0.06
COc1ccc(CCNCC(O)Cn2ccc3ccccc32)cc1OC (centres undefined) | -2 | .
